# Screening data (PubChem BioAssay)
# miR-21 FLuc = miR-21 reporter, rising signal. HeLa miR-21 FLuc reporter, luciferase, 48 h. Potency, µM (doses to about 38.3 µM), inactives show at the top dose reporter change, positive = more light. 340,000 tested, under 10 active. AID 2288; active = well fitted rising curve with a large enough effect; inconclusive = small, poorly fitted or top-dose-only effect; inactive = no such curve, though single readings can be large or run the other way;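 also: % of control where 0% means no effect; miR-21 action dims this reporter so a rising signal means less miR-21 action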
#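 HeLa cells stably expressing CMV-driven firefly luciferase with a downstream miR-21 binding sequence, endogenously expressing miR-21, were treated with titrations (up to about 40uM final) for 48 hours at 37 degree Celsius. Luciferase luminescence was read after lysis.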
# An asterisk follows results filed as active; ? = inconclusive. An excerpt, so the mix of outcomes need not match the whole.
miR-21 FLuc	Compound
12%	CCC(C)NC(=O)c1cc2n(n1)CCCN(Cc1ccc(C)cc1)C2=O (stereo not drawn)
3%	Cc1ccc2c(=O)cc(C(=O)Nc3ccc(S(=O)(=O)N4CCCCC4C)cc3)oc2c1C (stereo not drawn)
1%	Cc1ccc2oc(=O)c3cc(C(=O)NCc4ccc(Cl)cc4)sc3c2c1
4%	COc1ccccc1NC(=O)CSc1nnc2c3ccccc3n(C)c2n1
-49%	COc1ccc(S(=O)(=O)Nc2cc3c(cc2NCc2ccccc2)n(C)c(=O)n3C)cc1OC
7%	Cc1cccc(N(C)C(=O)CN(C)S(=O)(=O)c2ccc3[nH]c4c(c3c2)CCCC4)c1
4%	Cc1nc(-n2nc(C)c(Cc3ccccc3Cl)c2C)sc1C(=O)N1CCC(C)CC1
-11%	Cc1ccc2onc(CNC(=O)NCc3ccc(Cl)cc3)c2c1
0%	Cc1ccc(-c2nnc(SCC(=O)N3CCc4ccccc43)o2)cc1
4%	COc1ccccc1CN1C(=O)C(=O)c2cccc(C)c21
1%	COc1ccc(Cn2c(=O)c3oc4ccccc4c3n(CC(=O)Nc3cc(C)cc(C)c3)c2=O)cc1
5%	CCOc1ccc(S(=O)(=O)NCC(c2ccco2)S(=O)(=O)c2ccc(C)cc2)cc1 (stereo not drawn)
-2%	NC(=O)Cn1c(=O)n(CCCCCC(=O)NCc2ccc(F)cc2)c(=O)c2sccc21
13%	COc1cccc(N2C(=O)N(CC(=O)NCc3cccc(OC)c3OC)c3ccccc3S2(=O)=O)c1
0%	Cc1ccc(OCC(=O)Nc2cccc(-c3nc4ccccc4o3)c2C)cc1C
?	COc1ccccc1N(CC(=O)N1CCC(C)CC1)S(=O)(=O)c1ccc(C)cc1
-6%	Cc1ccc2nc(NC(=O)CSc3ncc(C(=O)Nc4ccccc4)c(=O)n3C)sc2c1
0%	CCCCCn1c(CNC(=O)c2ccccc2)nc2ccccc21
0%	CCCSCCCNC(=O)CN1C(=O)CCn2nc(-c3cn(C)c4ccccc34)cc21
4%	COc1cc(Cl)c(C)cc1NC(=O)CC1Oc2ccccc2NC1=O (stereo not drawn)
8%	Cc1ccccc1CNC(=O)Cc1ccc(NC(=O)N2CCCCc3ccccc32)cc1
-30%	COc1ccc2nc(N(Cc3cccnc3)C(C)=O)sc2c1
-47%	Cc1cc2nn(-c3ccc(F)cc3)nc2cc1NC(=O)c1cc(Cl)ccc1Cl
-4%	O=C(O)Cn1nc(N2CCN(c3ccccc3)CC2)ccc1=O
-1%	CC(C)c1nn2c(=O)cc(COC(=O)c3cccc(NC(=O)c4cccs4)c3)nc2s1
-25%	Cc1ccc(NC(=O)Cn2c(-c3ccc4c(c3)OCO4)cn(-c3ccccc3)c2=O)cc1C
25%	CCOc1ccccc1Nc1nc(-c2cccc(Cl)c2)c2c(n1)-c1ccccc1OC2
-3%	Cc1ccc(Cn2cc(S(=O)(=O)c3ccc(Cl)cc3)c(=O)c3cc4c(cc32)OCO4)cc1
-5%	Cc1ccc(NC(=O)CSc2nc3ccc(NC(=O)CCc4ccccc4)cc3s2)c(C)c1
4%	COc1ccc(CN2CCCN(CC(=O)Nc3cc(C)ccc3C)S2(=O)=O)cc1
-1%	COc1cccc(CNC(=O)C2CCN(S(=O)(=O)c3cn(C)cn3)CC2)c1
4%	Cc1ccccc1Cn1c(CN2CCCC(C)C2)nc2c1c(=O)n(C)c(=O)n2C (stereo not drawn)
?	COC(=O)NCC(c1cccnc1)N1CCN(c2ccc(F)cc2)CC1 (stereo not drawn)
-2%	COc1ccc(C2c3c(oc4ccccc4c3=O)C(=O)N2Cc2ccc3c(c2)OCO3)cc1 (stereo not drawn)
0%	COc1ccc(N2CC(NC(=O)C(=O)c3c(C)[nH]c4ccccc34)CC2=O)cc1 (stereo not drawn)
-7%	COc1ccc(-c2nc3sc(CCNC(=O)Cc4ccccc4)c(C)n3n2)cc1

# Quoted from the listing:
# miR-21 FLuc result of Cc1ccc(NC(=O)CSc2nc3ccc(NC(=O)CCc4ccccc4)cc3s2)c(C)c1 is entered as -5%
# miR-21 FLuc result of Cc1ccc(Cn2cc(S(=O)(=O)c3ccc(Cl)cc3)c(=O)c3cc4c(cc32)OCO4)cc1 is entered as -3%

# Next section.
miR-21 FLuc	Compound
0%	CC(=O)c1cc(-c2ccc(F)cc2)n(CC(=O)NC2CCCCCC2)c1C
2%	Cc1cc(C)n(C(C)CC(=O)Nc2cccc(C#N)c2)n1 (stereo not drawn)
-1%	CCOc1ccc(Nc2nc3c(S(=O)(=O)c4cccc(Cl)c4)nnn3c3ccsc23)cc1
6%	Cc1c(C(=O)OCc2ccccc2)[nH]c2c1C(=O)CC(c1ccc(C(C)(C)C)cc1)C2 (stereo not drawn)
2%	CCOC(=O)c1c(NC(=O)c2nc(SCC)ncc2Cl)sc(C(C)=O)c1C
-1%	COc1cccc(NC(=O)Cn2c(=O)n(Cc3ccccc3)c(=O)c3c2c2cc(C)ccc2n3C)c1
-4%	Cc1ccc(NC(=O)Cn2c(C)cc(C)c(C#N)c2=O)cc1
-9%	CN(C)c1ccc(CNC(=O)c2ccc3nc(Cc4ccccc4)oc3c2)cc1
-12%	CCCNC(=O)N1[C@H](c2ccc(C)s2)[C@@H](C)C(=O)[C@@H](C)[C@@H]1c1ccc(C)s1
1%	O=C(Cn1ncc2c3ccccc3n(Cc3cccc(Cl)c3)c2c1=O)NCCCc1ccccc1
-16%	COc1ccc2oc(-c3cccc(NC(=O)c4sc5c([N+](=O)[O-])cccc5c4Cl)c3)nc2c1
9%	CCN(CC)CCNC(=O)c1ccc2c(=O)n3nc(Nc4ccccc4OC)sc3nc2c1

# 2 entries picked at random from the list so far, as already listed:
miR-21 FLuc	Compound
6%	Cc1c(C(=O)OCc2ccccc2)[nH]c2c1C(=O)CC(c1ccc(C(C)(C)C)cc1)C2 (stereo not drawn)
2%	Cc1cc(C)n(C(C)CC(=O)Nc2cccc(C#N)c2)n1 (stereo not drawn)

# Continued:
miR-21 FLuc	Compound
-10%	CC(=O)N1CCC(N(Cc2ccc(C)o2)C(=O)Nc2ccccc2F)CC1
-3%	Cc1c(C)c2c(cc(C)c3c(-c4ccc(Br)cc4)coc32)oc1=O
2%	O=C(COC(=O)c1cc(-c2cccs2)nc2ccccc12)c1ccc(Cl)cc1
-1%	Cc1ccc(CNC(=O)C(=O)Nc2c3c(nn2-c2ccc(F)cc2)CSC3)cc1
-3%	CCC(CC)C(=O)Nc1cc(-c2cn3cccnc3n2)ccc1OC
10%	CCOC(=O)c1c(NC(=O)c2nc(SC(C)C)ncc2Cl)sc2c1CCCC2
-1%	CCN(CC)C(=O)Cn1c(SCC(=O)Nc2ccc(F)cc2)nc2ccccc21
3%	COc1ccccc1C1CC(=O)N(c2cccc(C(F)(F)F)c2)C2=C1C(=O)OC2 (stereo not drawn)
5%	CCS(=O)(=O)N1CCc2cc(C(=O)Nc3ccc(C(=O)OC)cc3)ccc21
-2%	Cc1cc(C)cc(NC(=O)CCS(=O)(=O)c2cc3c4c(c2)CCN4C(=O)CC3)c1
-6%	CCOc1ccccc1NC(=O)Cn1c(=O)n(Cc2ccccc2)c(=O)c2cccnc21
30%	Cc1ccc2c(c1)c(=O)c(C(=O)c1ccccc1)cn2Cc1ccccc1F
-19%	COc1ccccc1CNC(=O)c1cc(-c2ccccc2)n[nH]1
5%	COc1ccc(CNC(=O)c2c3c(nc4ccccc24)C(=O)N(C2CCCCC2)C3)cc1
2%	O=C(Nc1nc2nc(-c3ccccc3)cc(=O)n2[nH]1)c1ccc(Cl)cc1
1%	CCOC(=O)c1cc(-c2ccccc2)n(CC(=O)Nc2cc(Cl)c(OC)cc2OC)c1C
-2%	O=c1c(S(=O)(=O)c2cccc(Cl)c2)cn(Cc2ccccc2)c2cc(N3CCOCC3)c(F)cc12
-2%	CC(=O)OC1=C(C(C)=O)N(Cc2ccccc2)S(=O)(=O)c2ccccc21
4%	CCc1ccc(CN(Cc2ccco2)c2cnc(S(C)(=O)=O)nc2C(=O)Nc2ccc(C)c(Cl)c2)cc1
7%	Cc1cc(OCC(=O)N(Cc2ccc(N(C)C)cc2)CC2CCCO2)ccc1Cl (stereo not drawn)
23%	CCOc1cc(C(Nc2cc(C)ccn2)c2ccc3cccnc3c2O)ccc1OC (stereo not drawn)
1%	CC(C)NC(=O)CN1C(=O)CCn2nc(-c3cn(C)c4ccccc34)cc21
-32%	O=C(Nc1cccc2cccnc12)c1ccc(F)cc1
7%	COc1ccc(CCNC(=O)c2ccc3c(c2)N(Cc2cccc(C)c2)C(=O)c2ccccc2S3(=O)=O)cc1OC
-1%	COc1cccc(NC(=O)/C(C#N)=C/c2c(C)n(Cc3ccc(Cl)cc3)c3ccccc23)c1
-2%	CCS(=O)(=O)N1CCC(C(=O)NCCC(C)C)CC1
10%	CCCSc1ncc(Cl)c(C(=O)Nc2ccc(S(=O)(=O)N(C)c3ccccc3)cc2)n1
-2%	COc1ccc(NC(=O)N2CCN3CCCCC3C2)cc1OC (stereo not drawn)
3%	Cn1cnc(S(=O)(=O)N2CCC(C(=O)N3CCN(c4cccc(C(F)(F)F)c4)CC3)CC2)c1
-2%	CCOc1ccc(C(=O)Nc2ccc3nc(SCCOc4ccccc4)sc3c2)cc1
0%	CCn1cc(C(=O)OCC(=O)Nc2cc(Cl)ccc2C)c(=O)c2ccc(C)nc21
-2%	COc1cccc(CNC(=O)CSc2ncc3c(n2)-c2cc(Cl)ccc2N(C)S3(=O)=O)c1
8%	CCc1ccc(NC(=O)CSc2nc(=O)n(Cc3ccccn3)c3c2CCC3)cc1
-6%	CCC(C(=O)Nc1cc(OC)ccc1OC)n1c(=O)c(C(F)(F)F)nc2ccccc21 (stereo not drawn)
-5%	COc1ccc(C2=CC(c3cccc(C)c3)n3nnnc3N2)cc1 (stereo not drawn)
-18%	O=C(/C=C/c1ccccc1)Nc1nc(-c2cccs2)ns1

# Structures from the list above with a furan ring, fused or not (5):
miR-21 FLuc	Compound
1%	COc1ccc(Cn2c(=O)c3oc4ccccc4c3n(CC(=O)Nc3cc(C)cc(C)c3)c2=O)cc1
5%	CCOc1ccc(S(=O)(=O)NCC(c2ccco2)S(=O)(=O)c2ccc(C)cc2)cc1 (stereo not drawn)
-10%	CC(=O)N1CCC(N(Cc2ccc(C)o2)C(=O)Nc2ccccc2F)CC1
-3%	Cc1c(C)c2c(cc(C)c3c(-c4ccc(Br)cc4)coc32)oc1=O
4%	CCc1ccc(CN(Cc2ccco2)c2cnc(S(C)(=O)=O)nc2C(=O)Nc2ccc(C)c(Cl)c2)cc1

# Additional compounds follow.
miR-21 FLuc	Compound
-1%	CCc1ccc(N2C(=O)N(CC(=O)C(C)(C)C)c3ccccc3S2(=O)=O)cc1
7%	Cc1ccc(C)c(NC(=O)CCS(=O)(=O)c2cccc3nsnc23)c1
10%	CCC(=O)N1CCc2cc(Br)cc(S(=O)(=O)CCC(=O)N3CCN(c4ccc(OC)cc4)CC3)c21
-43%	Cc1ccc(-c2nc3cc(Cl)ccc3o2)cc1NC(=O)c1cc([N+](=O)[O-])ccc1N1CCOCC1
4%	CCc1ccc(CNC(=O)Cn2nc(C)c3nn(-c4ccc(Cl)cc4)c(C)c3c2=O)cc1
-26%	CCOc1ccc2nc(N3CCCC(C(=O)Nc4ccc(OC)cc4)C3)sc2c1 (stereo not drawn)
0%	Cc1ccc(-c2cc(C(=O)NCCc3ccccc3)c3ccccc3n2)cc1C
6%	CCc1ccccc1NC(=O)Cn1c(=O)n(Cc2ccco2)c(=O)c2sc3ccccc3c21
-12%	COc1cccc(CN(C(=O)c2oc3cc(C)ccc3c2C)C2CCS(=O)(=O)C2)c1 (stereo not drawn)
-2%	CCOc1ccc(OCC)c(NC(=O)c2cc(S(=O)(=O)N3CCCC3)cn2C)c1
12%	COc1ccc(NC(=O)c2oc3ccccc3c2NC(=O)c2cc(OC)c(OC)c(OC)c2)cc1
-1%	COc1cccc(CN2C(=O)CN(C3CCCCC3)C(=O)C2c2ccc(OC)c(OC)c2)c1 (stereo not drawn)
?	COc1ccc(-c2ccc3c(N)c(C(=O)Nc4ccc(C(F)(F)F)cc4)sc3n2)cc1OC
-1%	Cc1cc(C)n(-c2nc3ccccc3nc2N2CCN(c3cccc(C)c3C)CC2)n1
0%	Cc1ccc(-n2ccn(CC(=O)c3ccc(F)cc3)c(=O)c2=O)cc1C
15%	Cc1ccc2c(CNCc3cccs3)c(C(=O)O)n(Cc3ccc(F)cc3)c2c1
?	CCCCC(CC)CNC(=O)CCCc1nnc2n(CCC)c(=O)c3sccc3n12 (stereo not drawn)
0%	COc1cccc(N2CC(NC(=O)C(c3ccccc3)c3ccccc3)CC2=O)c1 (stereo not drawn)
-19%	Cc1cccc(-c2nnn3c2nc(NCc2ccccc2)c2ccccc23)c1
1%	COc1ccc(NC(=O)CC2C(=O)N(c3ccc(C)cc3)C(=O)N2Cc2cccnc2)cc1 (stereo not drawn)
?	CCC(=O)N1CCCc2cc(S(=O)(=O)N3CCC(C(=O)Nc4ccc(C#N)cc4)CC3)ccc21
-5%	CN(C)c1ccc(CNC(=O)C2CCN(S(=O)(=O)c3cn(C)cn3)CC2)cc1
-2%	COc1ccc(-n2ccn(Cc3ccccc3Cl)c(=O)c2=O)cc1OC
-2%	COc1ccc2oc(=O)c(C(=O)N3CCN(c4cc(Cl)ccc4Cl)CC3)cc2c1
-3%	CCOC(=O)c1c(NC(=O)COc2ccc(C(C)(C)C)cc2)sc2c1CCCC2
-1%	COCCNC(=O)c1cnc2sc(N3CCCCC3)nn2c1=O
0%	Nc1nonc1-c1nc2ccccc2n1Cc1ccc(Br)cc1
8%	COc1ccc(CNC(=O)c2ccc3c(c2)N(Cc2ccccc2)CCS3)cc1
-13%	CCc1ccc(C2=CC(c3cccc(OC)c3OC)n3c(nc4ccccc43)N2)cc1 (stereo not drawn)
0%	Cc1cccc(CCNC(=O)c2sc3nc4n(c(=O)c3c2C)CCCC4)c1
